Bioassay records: PubChem, National Center for Advancing Translational Sciences (NCATS)
Vaccinia Venus: inhibitors of vaccinia virus (Venus reporter). Vaccinia virus Venus reporter expression, fluorescence. Potency, µM (highest dose often 36.5 µM), without a hit: top-dose activity change, negative = inhibition, actives largely listed as inhibitors. 330,000 compounds, 0.46% hits. AID 720580; active means well fitted inhibition curve with a large enough effect; inconclusive means small, poorly fitted or top-dose-only effect; inactive means no such curve, though single readings can be large or run the other way; tested in A549 cells; note: nearly all actives have a fitted effect of over 30% in size; inactives centre near -10
VACV mCherry inh: vaccinia inhibition (mCherry reporter); Vaccinia virus mCherry reporter infection, fluorescence; about a quarter of the inactives have no number; Potency, µM (titrated, usually from 36.5 µM), inactives show top-dose activity change, negative = inhibition, most hits filed as inhibitors; 310,000 compounds, 0.63% hits; AID 720579; active = well fitted inhibition curve with a large enough effect; inconclusive = small, poorly fitted or top-dose-only effect; inactive = no such curve, though single readings can be large or run the other way; tested in A549 cells; note: nearly all actives have a fitted effect of over 35% in size; inactives centre near -10
* hit, by the source's call; i = inactive; ? = inconclusive; . = not tested or not shown; [ ] = another dose, or the depositor's remark. % is set by controls: 0 for no effect and ±100 for the full control effect; potency is the fitted concentration of half-maximal effect. No enrichment for hits; 0.87% or so of the library scored in one or more.

nr | molecule | Vaccinia Venus | VACV mCherry inh
1 | COc1cccc(C2CC(c3cccs3)=NN2C(=O)CSC2=NN3CCCC(=O)N=C3S2)c1OC (centres undefined) | -6% | -26%
2 | Oc1c(CN2CCCC(C(F)(F)F)C2)cc(Cl)c2ccccc12 (centres undefined) | -1% | -8%
3 | Nc1nonc1C(=O)OCC(=O)N1CCCCC1 | -30% | .
4 | FC(F)(F)c1nc2nc(Cl)c(Cl)nc2[nH]1 | -13% | -20%
5 | COCCNC(=O)C1CCCN(C(=O)c2cc(C(C)(C)C)nn2C)CC1 (centres undefined) | 5% | 52%[activator]
6 | O=C(OCCN=C1NS(=O)(=O)c2ccccc21)c1ccccc1F | 13% | -5%
7 | O=[N+]([O-])c1ccc(S(=O)(=O)NCC(c2cccnc2)N2CCc3ccccc32)cc1 (centres undefined) | -9% | 0%
8 | CCOc1ccc(CN2CCN(CC(O)Cn3c4ccccc4c4ccccc43)CC2)cc1 (centres undefined) | -12% | -3%
9 | Fc1ccc(Oc2ncccn2)c(F)c1 | -8% | i
10 | Cc1cc(C)n(-c2nncn2NC(=O)c2ccc(Cl)cc2O)n1 | -7% | .
11 | COc1cccc(CNC(=O)CSc2nc(=O)[nH]c3c2CCC3)c1 | -1%[7.34 µM] | 0%[7.34 µM]
12 | CCOC(=O)C1CCCN(C(=O)c2cc3c(=O)n4ccccc4nc3s2)C1 (centres undefined) | -5% | -16%
13 | O=C(CSc1ccsc1[N+](=O)[O-])N1CCCCC1 | -6% | ?
14 | O=C(NCCCCNC(=O)c1ccccn1)c1ccccn1 | -4% | i
15 | CS(=O)(=O)N1CCC(C(=O)NCCN2CCN(Cc3ccccc3)CC2)CC1 | -8% | i
16 | CC(C)CC1(C(=O)NCc2ccccn2)C=CCN1C(=O)c1ccccc1 (centres undefined) | -23% | i
17 | Cc1ccc(S(=O)(=O)N2CCC(C(=O)OCC(=O)N3CCCCC3C)CC2)cc1C (centres undefined) | -22% | -5%
18 | Cc1ccc(Nc2c3c(nc4ncnn24)CC(C)CC3)cc1 (centres undefined) | -21% | ?
19 | CSc1ncc(C(=O)N2CCN(c3ccc(Cl)cc3)CC2)c(C)n1 | -16% | -9%
20 | Cc1cccc(NC(=O)Cn2nc(N3CCN(c4ccccc4)CC3)ccc2=O)c1C | 6% | -10%
21 | CCCCc1nc(NCCO)c(C#N)c2c1CCCC2 | -10% | -7%
22 | CC(=O)Nc1ccc(NC(=O)CSc2ccc(C)cc2)cc1 | -5% | -18%
23 | Cc1cc(=O)[nH]c(NN=Cc2cc(Br)ccc2O)n1 | ? | 2µM*
24 | O=C(O)c1ccc(S(=O)(=O)N2CCCC2)cc1 | -10% | -8%
25 | O=C(Nc1ccc(Cl)cc1)c1ccc2sc([C@@H]3O[C@H](CO)[C@@H](O)[C@H]3O)nc2c1 | 10% | 18%
26 | CCOc1ccc(N(Cc2cc3ccc(C)cc3[nH]c2=O)C(=O)COC)cc1 | -17% | .
27 | CCC(=O)c1ccc(OCc2ccc(C(=O)OC)cc2)cc1 | -11% | -1%
28 | Cc1ccc(C)c(NS(=O)(=O)c2cc3c4c(c2)C(C)C(=O)N4CCC3)c1 (centres undefined) | 1% | -11%
29 | Cc1ccnc(Nc2nc(-c3ccc(O)c(O)c3)cs2)c1 | -24% | ?
30 | COC(=O)C1=C(C)NC(=S)NC1c1sccc1C (centres undefined) | -9% | i
31 | Cc1ccc(-n2nc3c(N4CCC(C(=O)NCCc5ccccc5)CC4)nnc(C)c3c2C)cc1 | 11µM* | 10µM*
32 | Cc1nn(CC(=O)NCc2cccnc2)c(C)c1[N+](=O)[O-] | -3% | i
33 | Cc1sc2nc3c4ccccc4c(NCc4ccco4)nn3c(=O)c2c1C | ? | .
34 | CCOc1ccc(C2CC(=O)N(Nc3ccc([N+](=O)[O-])cc3[N+](=O)[O-])C2=O)cc1 (centres undefined) | -11% | -17%
35 | CC(C)CCNC(=O)CCCc1ccccc1 | -21% | i
36 | O=C(O)C(Cc1c[nH]c2ccccc12)N1C(=O)C2C3c4ccccc4C(c4ccccc43)[C@@H]2C1=O (some centres undefined) | -16% | -20%
37 | CSCCC(NC(C)=O)C(=O)OCC(=O)N(c1ccccc1)c1ccccc1 (centres undefined) | -13% | -15%
38 | CCOC(=O)N1CCC(Nc2c(NCCCN3CCN(CC)CC3)c(=O)c2=O)CC1 | -5% | -9%
39 | CC(=O)c1c(N2CCN(c3ccccn3)CC2)nc(=S)n(-c2ccccc2)c1C | -5% | -5%
40 | CC(C)(C)OC(=O)N1CCC(c2c(C(=O)NCc3ccccn3)cnn2-c2ccccc2)CC1 | -2% | -4%

Overlap with the part before: five compounds, then new ones.
nr | molecule | Vaccinia Venus | VACV mCherry inh
36 | O=C(O)C(Cc1c[nH]c2ccccc12)N1C(=O)C2C3c4ccccc4C(c4ccccc43)[C@@H]2C1=O (some centres undefined) | -16% | -20%
37 | CSCCC(NC(C)=O)C(=O)OCC(=O)N(c1ccccc1)c1ccccc1 (centres undefined) | -13% | -15%
38 | CCOC(=O)N1CCC(Nc2c(NCCCN3CCN(CC)CC3)c(=O)c2=O)CC1 | -5% | -9%
39 | CC(=O)c1c(N2CCN(c3ccccn3)CC2)nc(=S)n(-c2ccccc2)c1C | -5% | -5%
40 | CC(C)(C)OC(=O)N1CCC(c2c(C(=O)NCc3ccccn3)cnn2-c2ccccc2)CC1 | -2% | -4%
41 | CC(C)(C)OC(=O)C[C@@H]1C/C=C\C[C@@H](CC(=O)N[C@@H](CO)Cc2ccccc2)C(=O)N2CCC[C@H]2COC1=O | -15% | i
42 | CC(=O)c1ccc2c(c1)Cc1cc(C(C)=O)ccc1-2 | -18% | i
43 | CN(C(=O)COC(=O)c1cc([N+](=O)[O-])ccc1N1CCOCC1)C1CCCCC1 | -12% | 0%
44 | CCOC(=O)c1c(C)nn(-c2ccc(NC(=O)c3cccs3)cc2)c1C | -12% | i
45 | CCc1ccc[n+](-c2[nH]c(=O)sc2/C=N/N=C(\[O-])c2ccncc2)c1 | -9% | i
46 | CC1CC(C)CN(S(=O)(=O)c2cc3c4c(c2)CCN4C(=O)CC3)C1 (centres undefined) | -9% | -8%
47 | Cc1sc2nc(SC(C)C)nc(N)c2c1C | -2% | -12%
48 | C[C@H](CO)N1C[C@H](C)[C@H](CN(C)Cc2ccccc2)Oc2ncc(Br)cc2C1=O | -10% | i

Exported field by field: 2 of the compounds above.
42. CC(=O)c1ccc2c(c1)Cc1cc(C(C)=O)ccc1-2
  Vaccinia Venus: -18% | VACV mCherry inh: i

43. CN(C(=O)COC(=O)c1cc([N+](=O)[O-])ccc1N1CCOCC1)C1CCCCC1
  Vaccinia Venus: -12% | VACV mCherry inh: 0%

(cont.)
nr | molecule | Vaccinia Venus | VACV mCherry inh
49 | CCOC(=O)C1CCN(c2nc3c(S(=O)(=O)c4ccccc4)nnn3c3ccsc23)CC1 | -17% | -24%
50 | COc1ccc(CN2CCC3CC2c2cc(Cl)ccc23)cc1 (centres undefined) | ? | -30%
51 | O=C(CCc1ccncc1)NC1CCCc2c1cnn2-c1cc(F)cc(F)c1 (centres undefined) | -25% | i
52 | CC(OC(=O)CCc1nc2ccccc2c(=O)[nH]1)C(=O)c1ccc(C(C)(C)C)cc1 (centres undefined) | -11% | i
53 | Nc1n[nH]c(-c2ccc([N+](=O)[O-])cc2[N+](=O)[O-])n1 | -11% | -9%
54 | Cc1ccc(CNC(=O)C2CCC(CNS(=O)(=O)c3ccc4c(c3)CCCC(=O)N4)CC2)cc1 (centres undefined) | 1% | -5%
55 | O=C(COC(=O)c1ccccc1OC(F)F)Nc1ccc(N2CCCCC2)cc1 | -18% | -21%
56 | O=c1c2ccccc2oc2cc(Br)ccc12 | 2% | i
57 | COc1ccc(S(=O)(=O)N2Cc3ccccc3CC2C(=O)N2CCOCC2)cc1 (centres undefined) | 6% | -3%
58 | O=[N+]([O-])c1ccc(NC(=S)N2CCN(c3ccccn3)CC2)cc1 | -9% | i
59 | CCN(c1ccc(OC)cc1)S(=O)(=O)c1nnc(NC(=O)C(C)C)s1 | -15% | i
60 | CC#CCOC(=O)C1=CCCN(C)C1 | -13% | -23%
61 | CC(=O)N1N=C(c2ccccc2O)OC1(C)CC(=O)Nc1ccccc1 (centres undefined) | -13% | -14%
62 | CCOC(=O)C1C(c2ccccc2)N(C)OC1(O)C(F)(F)F (centres undefined) | -9% | -1%
63 | CC1(C)Cc2c(sc3c2c2ncnn2c2nnc(SCC(=O)NCc4ccco4)n32)CO1 | -5% | .
64 | CNc1nc2c(c(=O)[nH]c(=O)n2C)n1CCCc1ccccc1 | -12% | i
65 | N#Cc1nc(-c2ccc(OCc3ccc(Cl)cc3)cc2)oc1N1CCCC1 | 1% | 17%
66 | NC(=O)c1cccc(-c2coc3c(C(=O)NCc4ccccc4)cccc23)c1 | -20% | 18%
67 | COc1ccc(N2CCN(CCCNC(=O)c3cnn(-c4ccc(C)cc4)c3-n3cccc3)CC2)cc1 | -22% | -16%
68 | NC(=O)c1cc(NC(=O)COC(=O)CCCN2C(=O)c3cccc4cccc(c34)C2=O)cc(C(N)=O)c1 | -7% | -11%
69 | CC(C)CC1Nc2ncnc(N3CCN(c4ccccc4)CC3)c2N(Cc2ccc(Br)cc2)C1=O (centres undefined) | -18% | -11%
70 | O=C(/C=C/Nc1ccc(Br)cc1F)c1ccccc1 | -6% | i
71 | CCC1CCc2sc(C(=O)NCC(c3ccc(OC)cc3)N3CCCC3)cc2C1 (centres undefined) | -21% | -18%
72 | O=C(CN1c2cccc3cccc(c23)S1(=O)=O)NCc1ccccc1Cl | -9% | -20%

Entries of single compounds from above. Values in the order: Vaccinia Venus, VACV mCherry inh
`O=C(CN1c2cccc3cccc(c23)S1(=O)=O)NCc1ccccc1Cl` across the screens: -9%, -20%
`N#Cc1nc(-c2ccc(OCc3ccc(Cl)cc3)cc2)oc1N1CCCC1` across the screens: 1%, 17%

Next compounds
nr | molecule | Vaccinia Venus | VACV mCherry inh
73 | Cc1ccc(C(=O)N(CC(=O)NC2CCCC2)c2cccc(F)c2)s1 | -15% | -10%
74 | O=c1c2c3c(sc2ncn1/N=C/c1ccc([N+](=O)[O-])o1)CCCC3 | -3% | .
75 | Cc1ccc(CNC(=O)[C@]2(C)CCC[C@@]3(C)C4CC[C@@]5(C)C[C@]4(CCC32)CC5=O)cc1 (some centres undefined) | -24% | -16%
76 | CCCCOCCCNC(=O)C1c2ccccc2Oc2ccccc21 | -6% | -6%
77 | COC(=O)[C@@H]1N2C(=O)[C@@H](NC(=O)C(C)Oc3ccccc3)[C@H]2SC1(C)C (some centres undefined) | -14% | i
78 | CN1CCC(N(C)c2ccc(C(N)=O)cc2[N+](=O)[O-])CC1 | -3% | 14%
79 | CCN(CC)S(=O)(=O)c1ccc(N2CC(C(=O)NCCc3c[nH]c4ccccc34)CC2=O)cc1 (centres undefined) | -25% | -7%
80 | CC(=O)n1cc(/C=N/NC(=O)c2cccc(O)c2)c2ccccc21 | -16% | -20%
81 | COc1cc(OC)c(C(=O)OCC(=O)Nc2ccccc2Cl)cc1OC | -26% | i
82 | CCOc1cc(/C=N\NC(=O)OC(C)(C)C)ccc1OC(=O)c1ccco1 | -11% | -2%
83 | Cn1c(-c2sc3cc(C(F)(F)F)cnc3c2-c2ccccc2)n[nH]c1=S | -6% | .
84 | COc1ccccc1NS(=O)(=O)c1cc(NC(=O)Cn2cnc3c2c(=O)n(C)c(=O)n3C)ccc1C | -2% | -7%
85 | CN1CCc2c(sc3c2C(=O)NC(c2ccccc2)N3)C1 (centres undefined) | -3% | -9%
86 | O=C(O)c1ccc(-[n+]2c(-c3ccccc3)cc(-c3ccccc3)cc2-c2ccccc2)cc1 | 0% | i
87 | CCOc1ccc(C2OCCC(C)O2)cc1OC (centres undefined) | -15% | -13%
88 | Cn1c(SCc2nn[nH]n2)nc2c1c(=O)n(Cc1ccccc1Cl)c(=O)n2C | -6% | -19%
89 | Cc1ccc(CC2CC(=O)N(c3cc(C)on3)C2=O)cc1 (centres undefined) | -10% | -25%
90 | Cc1ccc(S(=O)(=O)CCC(=O)NCc2ccco2)cc1 | -9% | -6%
91 | CCC1CN(CC(=O)NC(c2ccccn2)C(F)(F)F)Cc2cc(OC)ccc2O1 (centres undefined) | 4% | -12%
92 | O=C(c1ccc(CSc2ccccc2)cc1)N1CCN(c2ccccc2)CC1 | -9% | -11%
93 | CCCNC(=O)C(=O)N/N=C/c1cccs1 | 5% | i
94 | COc1ccc(C2/C(=C(/O)c3ccc4c(c3)CC(C)O4)C(=O)C(=O)N2CCN2CCOCC2)cc1OC (centres undefined) | -3% | -10%
95 | CC(C)C(C(=O)NCC1CCCO1)N(CC1CCCO1)C(=O)CNS(=O)(=O)c1ccccc1 (centres undefined) | -6% | i
96 | COCCOC(=O)c1c(C)oc2ccc(OCc3ccccc3)cc12 | -4% | i
97 | CCN(CC)S(=O)(=O)c1ccc2c(c1)oc(=O)n2CC(=O)N(C)C1CCCCC1 | -21% | -8%
98 | CC(=O)N1CCCc2cc(S(=O)(=O)N3CCCC(C(=O)Nc4ccc(C)c(F)c4)C3)ccc21 (centres undefined) | -16% | -11%
99 | COc1ccc(N2C(=O)N3[C@H](c4cccc(C)c4)[C@@H]4C(=O)N(Cc5ccccc5)C(=O)[C@@H]4[C@]3(Cc3ccccc3)C2=O)cc1 | 4% | i
100 | Cc1ccc(Sc2cc(C(=O)NCCCN(C)C)c3ccccc3n2)cc1 | ? | i
101 | O=C(C[C@@H]1CC[C@@H]2[C@H](COC[C@@H](O)CN2Cc2cc(F)ccc2F)O1)NCc1ccc(F)cc1 | -9% | ?
102 | CCCCN(CC(O)COc1cccc(C)c1)CC(O)COc1cccc(C)c1 (centres undefined) | ? | ?
103 | CCCCOC(=O)C1C2C=CC3(CN(CCc4ccccc4)C(=O)C13)O2 (centres undefined) | -8% | -4%
